ID4 binder – binders of human ID4 protein; AID 624137; small molecule microarray, Flag-ID4 binding, fluorescence F/B; calls only; actives 1.2% (n = 31,000); P47928;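 active = spot signal over background at p below 0.07 in all four prints; compounds were printed on slides so no solution concentration is given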;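 also: a binder raises fluorescence above local background on the spot; about 2 pmol printed per array spot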
Target sequence (P47928 whole entry, looked up): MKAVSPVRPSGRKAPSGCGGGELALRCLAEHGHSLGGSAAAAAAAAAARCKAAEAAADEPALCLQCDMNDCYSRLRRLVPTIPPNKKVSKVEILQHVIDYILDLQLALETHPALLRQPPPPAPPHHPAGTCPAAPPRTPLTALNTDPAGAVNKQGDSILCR
STAT3 SMM – STAT3 (human) binding | calls only | actives 0.2% (n = 17,000) | P40763 | Small molecule microarray, His-STAT3 binding, anti-His fluorescence | AID 624138;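 active = compounds whose four printed spots each show fluorescence over background unusually high for their array block, chance value under 7%; compounds were printed on slides so no solution concentration is given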;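 also: about 2 pmol printed per array spot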
mut p53 SMM – binders of human mutant p53; small molecule microarray binding, anti-GST fluorescence; calls only; actives 0.4% (n = 17,000); AID 624136;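 active = compounds whose four printed spots each glow above background more than chance allows, each with a p-value under 7%; compounds were printed on slides so no solution concentration is given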;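 also: about 2 pmol printed per array spot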
Myc binder – c-Myc (human) binding; P01106; small molecule microarray, His-c-Myc binding, anti-His fluorescence; calls only; actives 1.5% (n = 17,000); AID 624141;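 active = spot fluorescence over background with P-value below 7% in all four replicate spots, showing protein binding; compounds were printed on slides so no solution concentration is given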;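 also: score is binary with 100 for all four spots passing and 0 otherwise; about 2 pmol printed per array spot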
Target sequence (P01106 whole entry, looked up): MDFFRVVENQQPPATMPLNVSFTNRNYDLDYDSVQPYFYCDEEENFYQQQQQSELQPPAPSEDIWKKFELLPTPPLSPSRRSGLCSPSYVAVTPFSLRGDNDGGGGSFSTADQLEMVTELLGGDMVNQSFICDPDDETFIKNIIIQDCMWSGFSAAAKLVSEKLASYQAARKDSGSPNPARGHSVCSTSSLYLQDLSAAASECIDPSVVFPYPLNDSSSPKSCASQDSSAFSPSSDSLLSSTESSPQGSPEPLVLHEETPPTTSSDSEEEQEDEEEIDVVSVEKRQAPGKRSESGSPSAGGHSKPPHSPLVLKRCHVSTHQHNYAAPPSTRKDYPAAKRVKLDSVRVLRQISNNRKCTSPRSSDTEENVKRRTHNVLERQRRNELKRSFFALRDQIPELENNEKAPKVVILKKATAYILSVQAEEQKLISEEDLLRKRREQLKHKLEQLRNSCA
Calls only; i = inactive; . = not tested or not shown; + = active, no number. A portion of the library, so the mix of outcomes need not match the whole.

SMILES | ID4 binder | STAT3 SMM | mut p53 SMM | Myc binder
CC1(C)CC(=O)C2=C(C1)NC1=C(C(=O)c3ccccc31)C2c1ccc(OC(=O)CN2C(=O)C3CCCCC3C2=O)cc1 (stereo not drawn) | i | i | i | i
O=C(NCc1ccco1)c1cc([N+](=O)[O-])ccc1Sc1nc2ccccc2[nH]1 | i | i | i | i
Cc1sc2nc(SCC(=O)Nc3ccccc3C(F)(F)F)nc(N)c2c1C | i | i | i | i
C[C@H](CO)N1C[C@H](C)[C@@H](CN(C)C(=O)Nc2ccc(F)cc2)Oc2ccc(NC(=O)Nc3ccc4c(c3)OCO4)cc2C1=O | i | i | i | i
C[C@@H]1CN([C@@H](C)CO)C(=O)c2cccc(NC(=O)Nc3ccc(F)cc3)c2O[C@@H]1CN(C)Cc1ccc(C(F)(F)F)cc1 | i | i | i | i
Cc1noc(C)c1NC(=O)N(C)C[C@H]1Oc2ccc(NS(=O)(=O)c3cccs3)cc2C(=O)N([C@@H](C)CO)C[C@H]1C | i | i | i | i
C[C@@H]1CN([C@H](C)CO)C(=O)Cc2cc(NC(=O)Nc3ccc(C(F)(F)F)cc3)ccc2O[C@H]1CN(C)CC1CC1 | i | i | i | i
Nc1nnc(SCC(=O)Nc2ccc(Cl)cc2O)s1 | i | i | i | i
Cc1nc(SC(C(=O)c2ccccc2)c2ccccc2)nc2c1CCCC2 (stereo not drawn) | i | i | i | i
Nc1ncnc2c1ncn2C1OC(CO)[C@H](O)[C@@H]1S (stereo partly drawn) | i | i | i | i

Looked up by structure from above (2):
SMILES | ID4 binder | STAT3 SMM | mut p53 SMM | Myc binder
CC1(C)CC(=O)C2=C(C1)NC1=C(C(=O)c3ccccc31)C2c1ccc(OC(=O)CN2C(=O)C3CCCCC3C2=O)cc1 (stereo not drawn) | i | i | i | i
Cc1noc(C)c1NC(=O)N(C)C[C@H]1Oc2ccc(NS(=O)(=O)c3cccs3)cc2C(=O)N([C@@H](C)CO)C[C@H]1C | i | i | i | i

(list continues)
SMILES | ID4 binder | STAT3 SMM | mut p53 SMM | Myc binder
C[C@H](CO)N1C[C@H](C)[C@@H](CN(C)Cc2ccncc2)Oc2ccc(NC(=O)Nc3ccc(C(F)(F)F)cc3)cc2C1=O | . | i | i | i
C[C@H]1CN([C@@H](C)CO)C(=O)c2cc(NC(=O)CCC(F)(F)F)ccc2O[C@H]1CN(C)CC1CC1 | i | i | i | i
Cc1noc(C)c1NC(=O)Nc1ccc2c(c1)C(=O)N([C@H](C)CO)C[C@H](C)[C@H](CN(C)S(=O)(=O)c1cn(C)cn1)OCCCC[C@H](C)O2 | i | i | i | i
CC(C)OC(=O)N(C)C[C@@H]1OCc2cn(nn2)CCCC(=O)N([C@H](C)CO)C[C@H]1C | . | i | i | i
C[C@H](CO)N1C[C@H](C)[C@H](CN(C)C)Oc2ccc(NS(=O)(=O)c3cn(C)cn3)cc2C1=O | i | i | i | i
C[C@H](CO)N1C[C@H](C)[C@H](CN(C)C(=O)Nc2cccc3ccccc23)Oc2c(NS(C)(=O)=O)cccc2C1=O | i | i | i | i
COc1ccc(S(=O)(=O)Nc2ccc3c(c2)C(=O)N([C@@H](C)CO)C[C@@H](C)[C@H](CN(C)S(=O)(=O)c2ccc(C)cc2)OCCCC[C@@H](C)O3)cc1 | . | i | i | i
CC(C)NC(=O)N(C)C[C@@H]1OCCCC[C@H](C)Oc2ccc(N(C)C)cc2C(=O)N([C@H](C)CO)C[C@@H]1C | i | i | i | i
Clc1ccccc1CSc1nnc(Cn2cnc3ccccc32)n1-c1ccccc1 | i | i | i | i
CCCC(=O)Nc1ncnc2c1ncn2C1OC2COP(=O)(O)OC2C1OC(=O)CCC (stereo not drawn) | i | i | i | i
C[C@H](CO)N1C[C@H](C)[C@@H](CN(C)CC2CC2)OCCCC[C@H](C)Oc2ccc(NC(=O)NC3CCCCC3)cc2C1=O | . | i | i | i
O=C(N1CCOCC1)[C@]1(Cc2ccccc2)N=C(c2ccc(OCCCO)cc2)O[C@@H]1c1ccccc1 | i | i | i | i
O=C(NC1CCN(Cc2ccccc2)CC1)c1ccc(I)cc1 | i | i | i | i
C[C@@H]1CN([C@@H](C)CO)C(=O)c2cc(NC(=O)c3ccccc3)ccc2O[C@@H](C)CCCCO[C@H]1CN(C)S(=O)(=O)c1cn(C)cn1 | i | i | i | i
C[C@@H]1CN([C@@H](C)CO)C(=O)c2cc(NC(=O)CCCN(C)C)ccc2O[C@@H](C)CCCCO[C@@H]1CN(C)Cc1ccncc1 | i | i | i | i
COc1ccc(CN(CCN(C)C)c2ncccn2)cc1 | i | i | i | i
C[C@@H]1CN([C@H](C)CO)C(=O)c2cccc(NC(=O)C3CCOCC3)c2O[C@H]1CN(C)Cc1ccc2c(c1)OCO2 | i | i | i | i
CC(=O)Nc1ccc(NC(=O)CC2C(=O)Nc3ccccc3N2C(C)=O)cc1 (stereo not drawn) | i | i | i | i
C=C1CC/C=C(/COC(C)=O)C(=O)C[C@@H]2[C@@H]1CC2(C)C | . | i | i | i
COc1ccc(C)cc1S(=O)(=O)N1CCC(C(=O)Nc2ccccc2Sc2ccccc2)CC1 | i | i | i | i
C[C@@H]1CN([C@@H](C)CO)C(=O)Cc2cc(NC(=O)Cc3ccccc3)ccc2O[C@H]1CN(C)S(=O)(=O)c1cccs1 | i | i | i | i
Cc1noc(C)c1S(=O)(=O)Nc1ccc2c(c1)C(=O)N([C@@H](C)CO)C[C@H](C)[C@H](CN(C)Cc1ccncc1)OCCCC[C@@H](C)O2 | i | i | i | i
C[C@@H]1CN([C@H](C)CO)C(=O)Cc2cc(NS(=O)(=O)c3ccccc3)ccc2O[C@@H]1CN(C)S(=O)(=O)c1cccs1 | i | i | i | i
C[C@@H]1CN([C@@H](C)CO)C(=O)c2cc(NS(=O)(=O)c3ccccc3)ccc2O[C@@H]1CN(C)C(=O)NC1CCCCC1 | i | i | i | i
C[C@@H]1CN([C@H](C)CO)C(=O)c2cc(NC(=O)Nc3cccc4ccccc34)ccc2O[C@@H](C)CCCCO[C@H]1CN(C)S(C)(=O)=O | . | i | i | i
Ic1ccc(N2CCN(Cc3c[nH]c4ncccc34)CC2)cc1 | i | i | i | i
C[C@@H]1CN([C@@H](C)CO)C(=O)CCCn2nncc2CO[C@@H]1CN(C)C(=O)Nc1ccnc(N2CCOCC2)c1 | . | i | i | i
Cc1sc2nc(SCCC(=O)NC3CCCCC3)[nH]c(=O)c2c1C | i | i | i | i
C[C@H]1CN([C@@H](C)CO)C(=O)c2cccc(NC(=O)NC3CCCCC3)c2O[C@@H]1CN(C)Cc1ccc(C(=O)O)cc1 | i | i | i | i
C[C@@H]1CN([C@@H](C)CO)C(=O)Cc2cc(NC(=O)CCN3CCOCC3)ccc2O[C@H]1CN(C)S(=O)(=O)c1ccccc1 | i | i | i | i
C[C@@H]1CCCCO[C@H](CN(C)Cc2ccc3c(c2)OCO3)[C@@H](C)CN([C@H](C)CO)C(=O)c2cc(N(C)C)ccc2O1 | . | i | i | i
C[C@@H]1CN([C@@H](C)CO)C(=O)c2cc(NC(=O)Nc3ccccc3)ccc2O[C@@H](C)CCCCO[C@H]1CN(C)C(=O)Nc1ccccc1 | i | i | i | i
COc1ccc(NC(=O)Nc2ccc3c(c2)CC(=O)N([C@@H](C)CO)C[C@@H](C)[C@@H](CN(C)C)O3)cc1 | i | i | i | i
C[C@@H]1CN([C@@H](C)CO)C(=O)c2cc(NC(=O)CCC(F)(F)F)ccc2O[C@@H](C)CCCCO[C@@H]1CN(C)C(=O)Nc1cccc2ccccc12 | . | i | i | i
Cc1noc(C)c1S(=O)(=O)Nc1ccc2c(c1)C(=O)N([C@@H](C)CO)C[C@@H](C)[C@H](CN(C)C(=O)Nc1ccc(F)cc1)O2 | i | i | i | i
C[C@@H]1CN([C@H](C)CO)C(=O)CCCn2cc(nn2)CO[C@H]1CN(C)Cc1ccc2c(c1)OCO2 | i | i | i | i
Cc1noc(C)c1S(=O)(=O)Nc1ccc2c(c1)C(=O)N([C@@H](C)CO)C[C@H](C)[C@@H](CN(C)C)OCCCC[C@@H](C)O2 | i | i | i | i
CCO[C@H]1OC(C(=O)Nc2ccccc2)=C[C@@H](c2ccc(Br)cc2)[C@@H]1CCCO | i | i | i | i
CNC(=O)CN(C)S(=O)(=O)c1ccc(OC)c(C)c1 | i | i | i | i
C=CCNC(=O)[C@H]1[C@@H]2C(=O)O[C@@H](c3ccccc3)[C@@H](c3ccccc3)N2[C@@H](c2ccc(OCCO)cc2)[C@]12C(=O)N(C(=O)OCCOC)c1ccc(C#CC3=CCCCC3)cc12 | i | i | i | i

The final 6 compounds of the part above are carried over, then new ones follow:
SMILES | ID4 binder | STAT3 SMM | mut p53 SMM | Myc binder
Cc1noc(C)c1S(=O)(=O)Nc1ccc2c(c1)C(=O)N([C@@H](C)CO)C[C@@H](C)[C@H](CN(C)C(=O)Nc1ccc(F)cc1)O2 | i | i | i | i
C[C@@H]1CN([C@H](C)CO)C(=O)CCCn2cc(nn2)CO[C@H]1CN(C)Cc1ccc2c(c1)OCO2 | i | i | i | i
Cc1noc(C)c1S(=O)(=O)Nc1ccc2c(c1)C(=O)N([C@@H](C)CO)C[C@H](C)[C@@H](CN(C)C)OCCCC[C@@H](C)O2 | i | i | i | i
CCO[C@H]1OC(C(=O)Nc2ccccc2)=C[C@@H](c2ccc(Br)cc2)[C@@H]1CCCO | i | i | i | i
CNC(=O)CN(C)S(=O)(=O)c1ccc(OC)c(C)c1 | i | i | i | i
C=CCNC(=O)[C@H]1[C@@H]2C(=O)O[C@@H](c3ccccc3)[C@@H](c3ccccc3)N2[C@@H](c2ccc(OCCO)cc2)[C@]12C(=O)N(C(=O)OCCOC)c1ccc(C#CC3=CCCCC3)cc12 | i | i | i | i
C[C@@H]1CCCCO[C@H](CN(C)C(=O)c2ccncc2)[C@@H](C)CN([C@H](C)CO)C(=O)c2cc(NS(C)(=O)=O)ccc2O1 | i | i | i | i
COc1ccc([Si](C)(C)[C@H]2[C@H](CCO)O[C@@]3(C(=O)N(Cc4ccccc4)c4ccc(N5CCC5=O)cc43)[C@@H]2C)cc1 | . | i | i | i
C=C1C(=O)O[C@@H]2CC=C(CCC(C)O)C(C)C[C@@H]12 (stereo partly drawn) | i | i | i | i
C[C@H](CO)N1C[C@H](C)[C@H](CN(C)Cc2ccccc2)Oc2ccc(NS(=O)(=O)c3cn(C)cn3)cc2CC1=O | i | i | i | i
C[C@H](CO)N1C[C@H](C)[C@H](CN(C)C)Oc2ccc(NC(=O)Cn3cnnn3)cc2CC1=O | i | i | i | i
C[C@@H]1CN([C@@H](C)CO)C(=O)c2cccc(NC(=O)C3CCOCC3)c2O[C@@H]1CN(C)CC1CC1 | i | i | i | i
Cc1ccccc1C(=O)Nc1ccc2nc(SCC(=O)Nc3ccccc3)sc2c1 | i | i | i | i
Nc1cc(N)nc(SCC(=O)c2ccc(F)cc2)n1 | i | i | i | i
COC(=O)[C@H](Cc1ccccc1)N1CC2=C[C@@H](C3CC3)n3c(=O)n(C)c(=O)n3[C@H]2[C@@H]1[C@@H](O)Cc1ccccc1 | . | i | i | i
C[C@H](CO)N1C[C@H](C)[C@H](CN(C)S(=O)(=O)c2ccccc2)Oc2ncc(C#CCN(C)C)cc2C1=O | i | i | i | i
C[C@@H]1CN([C@@H](C)CO)C(=O)CCCn2cc(nn2)CO[C@H]1CN(C)C(=O)c1ccccc1 | i | i | i | i
CNC[C@@H]1Oc2ccc(NC(=O)Nc3ccc4c(c3)OCO4)cc2C(=O)N([C@@H](C)CO)C[C@H]1C | + | i | i | i
Cc1ccc(C)c(NC(=O)CCC(=O)O)c1 | i | i | i | i
C[C@@H]1CN([C@@H](C)CO)C(=O)c2cccc(NC(=O)Nc3ccccc3)c2O[C@@H]1CN(C)C(=O)NC1CCCCC1 | i | i | i | i
C[C@H]1CN([C@@H](C)CO)C(=O)c2cc(NC(=O)NC3CCCCC3)ccc2O[C@H]1CN(C)S(=O)(=O)c1cccs1 | i | i | i | i
COc1ccc(NC(=O)N(C)C[C@H]2OCCCC[C@@H](C)Oc3ccc(NS(=O)(=O)c4cn(C)cn4)cc3C(=O)N([C@H](C)CO)C[C@H]2C)cc1 | . | i | i | i
CC(C)NC(=O)Nc1ccc2c(c1)C(=O)N([C@H](C)CO)C[C@H](C)[C@H](CN(C)S(=O)(=O)c1ccccc1)OCCCC[C@@H](C)O2 | i | i | i | i
CNC[C@@H]1OCCCC[C@H](C)Oc2ccc(NC(=O)Cc3ccccc3)cc2C(=O)N([C@@H](C)CO)C[C@@H]1C | i | i | i | i
C[C@@H]1CN([C@@H](C)CO)C(=O)Cc2cc(NC(=O)Nc3ccccc3)ccc2O[C@H]1CN(C)CC1CC1 | i | i | i | i
C[C@@H]1CN([C@@H](C)CO)C(=O)c2cccc(NS(=O)(=O)c3cn(C)cn3)c2O[C@@H]1CN(C)C(=O)Nc1cccc2ccccc12 | i | i | i | i
C[C@@H]1CN([C@H](C)CO)C(=O)c2cccc(NC(=O)NC3CCCCC3)c2O[C@@H]1CN(C)S(=O)(=O)c1cn(C)cn1 | i | i | i | i
O=C(C1=C[C@@H](C2CC2)C[C@@H](OCCCCO)O1)N1CCCCCCC1 | i | i | i | i
COC(=O)C(CC#Cc1ccc2c(c1)[C@]1(C(=O)N2)[C@H](C(=O)NC[C@H](O)c2ccccc2)[C@H]2C(=O)O[C@H](c3ccccc3)[C@H](c3ccccc3)N2[C@@H]1c1ccc(OCCO)cc1)C(=O)OC | . | i | i | i
CCC(Sc1nnc(-c2ccc(NC(C)=O)cc2)n1C)C(=O)Nc1ccc(Cl)cc1 (stereo not drawn) | i | i | i | i
Cc1ccc(S(=O)(=O)Nc2ccc3c(c2)CC(=O)N([C@@H](C)CO)C[C@H](C)[C@@H](CN(C)Cc2ccncc2)O3)cc1 | i | i | i | i
